# AF4-AF9 inh: blocks AF4 peptide binding to human AF9; P42568; AlphaScreen, biotin-AF4 peptide binding to FLAG-AF9; inhibition, % at 10 µM; 0.47% of 350,000 active; AID 651704;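 active = every replicate reaching a set inhibition limit, whatever the replicate mean, cut at about 25% in these data; inconclusive = mean inhibition reaches that limit but some replicates miss it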;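 also: 0% = plate neutral control median and 100% = total signal loss; the record names both 10 and 1 µM as test concentration; the first replicate is given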
# Target sequence (P42568 whole entry, looked up): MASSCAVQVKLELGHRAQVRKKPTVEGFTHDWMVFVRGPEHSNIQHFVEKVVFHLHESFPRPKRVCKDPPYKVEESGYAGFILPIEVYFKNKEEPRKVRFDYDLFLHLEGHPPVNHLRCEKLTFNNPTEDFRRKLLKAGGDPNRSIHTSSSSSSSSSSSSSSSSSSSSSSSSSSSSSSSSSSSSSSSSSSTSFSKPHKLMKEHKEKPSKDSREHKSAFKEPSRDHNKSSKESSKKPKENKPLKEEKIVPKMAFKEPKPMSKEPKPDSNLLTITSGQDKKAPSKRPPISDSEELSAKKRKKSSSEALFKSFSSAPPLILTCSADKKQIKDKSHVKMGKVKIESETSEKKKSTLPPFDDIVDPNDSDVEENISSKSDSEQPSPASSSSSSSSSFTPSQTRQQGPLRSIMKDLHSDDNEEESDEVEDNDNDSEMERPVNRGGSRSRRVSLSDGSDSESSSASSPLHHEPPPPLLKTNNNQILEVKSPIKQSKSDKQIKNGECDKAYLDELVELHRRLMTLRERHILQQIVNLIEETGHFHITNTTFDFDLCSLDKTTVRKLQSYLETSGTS
# FGF22 binding: shifts melting point of recombinant human FGF22. recombinant FGF22 thermal shift, SYPRO orange fluorescence; percent of sucrose octasulfate shift, DMSO zero. Q9HCT0. AID 651658. calls only at 9.99 µM. 1.5% of 340,000 active;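 active = melting point raised past a set limit in the mean and every replicate; inconclusive = no clear call; three in four hits are not shown here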
# Target sequence (Q9HCT0 whole entry, looked up): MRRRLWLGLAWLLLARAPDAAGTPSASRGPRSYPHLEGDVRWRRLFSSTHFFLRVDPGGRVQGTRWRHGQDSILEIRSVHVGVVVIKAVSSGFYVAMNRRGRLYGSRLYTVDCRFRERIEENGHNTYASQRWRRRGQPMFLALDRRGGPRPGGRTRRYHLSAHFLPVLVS
# ALR inh: human ALR oxidase inhibition via reduced H2O2; P55789; 3.8% of 290,000 active; AID 485317; purified ALR, DTT oxidation, H2O2 HRP-luminol luminescence; inhibition, % (test concentration not listed);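 active = mean and each replicate at 75% or more; inconclusive = only one of the two met; inactive = neither met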;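 also: stock transfer was 7.5 nL into about 7.5 µL; 0% = neutral wells and 100% = wells with inactivated enzyme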
# Target sequence (P55789 whole entry, looked up): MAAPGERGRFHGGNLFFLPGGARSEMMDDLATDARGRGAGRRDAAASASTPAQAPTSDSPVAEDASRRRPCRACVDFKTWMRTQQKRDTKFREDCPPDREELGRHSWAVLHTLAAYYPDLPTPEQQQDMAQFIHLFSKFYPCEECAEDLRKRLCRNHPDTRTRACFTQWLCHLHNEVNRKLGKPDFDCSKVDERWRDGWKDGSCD
# Ecoli growth: blocks Escherichia coli growth; OD600, 23 h; hits give low values; OD600 absorbance (no concentration beside the values); 0.21% of 330,000 active; AID 1053175;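 active = OD600 absorbance below the run mean of sample wells minus 3.6 SD, in any replicate, cut at about 0.56 in these data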;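 also: stock transfer was 300 nL into about 60 µL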
# HNF4A DNA FP: change in binding of human HNF4 alpha to DNA | P41235 | HNF4a-FITC DNA binding, fluorescence polarization, 1 h | activity change, % at 10 µM | 0.3% of 360,000 active | AID 1224865; in the data active = activity change above about 30%, passing the limit was not always enough;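 also: controls were the assay level and a saturating level of protein; the project sought stronger binding though the title names inhibitors; some compounds called inactive have numbers as strong as hits; positive values seem to mean higher polarization but the record does not say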
# rRNA inh HTS: inhibitors of bacterial rRNA selective over humanized ribosomes; AID 720706; E. coli WT GFP vs humanized-ribosome RFP mutants, fluorescence, 24 h; hits give low values; DMSO median 0, no signal -100; 1.6% of 350,000 active; GFP signal change (wild-type ribosome), % (concentration not given with the values);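 active = significant combined selectivity score with lowered wild-type GFP, culture density cut under 30%, mutant RFP and density less affected; inactive = any of these conditions unmet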; also: one replicate is shown; some compounds called inactive have numbers as strong as hits
# Vif A3G: HIV-1 Vif–A3G interaction blockers – biochemical, TR-FRET, GST-Vif 1-94, biotin-A3G peptide, dose response retest, primary screen (AID 1117319) | 0.57% of 260,000 active | TR-FRET GST-Vif / biotin-A3G peptide binding; higher % means a stronger effect; test concentration not given here; strong numbers were not always called active | inhibition, %, or IC50 in µM where a hit was titrated;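 active = above the screen mean plus three standard deviations and confirmed in dose response; inconclusive = results disagree or hit not tested in dose response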;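 also: Vif residues 1-94 fused to GST binding biotinylated APOBEC3G peptide 110-148; 0% = full assay without inhibitor and 100% = GST in place of GST-Vif; retest series ran down from 100 µM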
# rRNA inh HTS OD600: recorded beside rRNA inh HTS, whose call it bears; OD600 change, %; measured here: OD600 growth;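 optical density of the mix in the first replicate; 0 = DMSO median and -100 = no signal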
# rRNA inh HTS RFP: also measured in rRNA inh HTS; calls as there; RFP signal change, %; measured here: RFP humanized mutant strains;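 first replicate; 0 = DMSO median and -100 = no signal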
# * marks the source's active call; other numbers are inactive results; i = inactive; u = inconclusive; x = no result given; & = joins results of further samples. Only part of the results is shown; the hit share may differ from the screen's.
AF4-AF9 inh	FGF22 binding	ALR inh	Ecoli growth	HNF4A DNA FP	rRNA inh HTS	rRNA inh HTS OD600	rRNA inh HTS RFP	Vif A3G	Structure
x	x	-20.9	0.769	1.1	x	x	x	0.1%	Cc1ccccc1OC(=O)Cn1c(C(F)(F)F)nc2ccccc21
0.1&-9.5	i	0.6	x	2.2	-1.6&-10.3	-8.5&-14.3	3.5&-0.4	x	C[C@H](CO)N1C[C@H](C)[C@H](CN(C)S(=O)(=O)c2ccccc2)Oc2ccc(NC(=O)NC3CCCCC3)cc2CC1=O
0.5	i	x	x	x	-8.3	-10.7	-0.5	x	COC(=O)[C@]12C[C@H](CC(=O)NCCCN3CCCC3=O)C(=O)N(CCC3=CCCCC3)C1=C[C@H](C(C)(C)C)O[C@@H]2C
x	x	x	0.725	1.7	x	x	x	0.0%	Cc1ccc(-n2nnnc2-c2cnc(N3CCCC3)nc2C(F)(F)F)cc1
-0.6	i	0.2	x	1.9	11.2	-7.8	13.4	3.8%	CCCOc1ccc(/C=c2\sc3ncnn3c2=O)cc1
x	x	-18.2	x	-6.2	x	x	x	-10.4%	O=C(C1=C[C@H](C2CCCCC2)C[C@H](OCCCCO)O1)N1CCN(Cc2ccc3c(c2)OCO3)CC1
-9.8	i	x	x	x	-0.6	0.9	0.2	x	Cc1noc(C)c1NC(=O)N(C)C[C@@H]1OCc2ccccc2-c2c(n(C)c3ccccc23)C(=O)N([C@@H](C)CO)C[C@H]1C
x	x	2.1	0.645	x	x	x	x	5.3%	O=C(Cn1nc2sc3ccccc3n2c(=O)c1=O)c1ccc(Cl)cc1
-1.0	i	-9.6	0.666	-1.8	2.7	6.1	-2.9	-7.7%	NC(=O)CSc1nnc(NC(=O)c2ccc(S(=O)(=O)N3CCCCC3)cc2)s1
x	x	25.6	0.703	7.1	x	x	x	-7.4%	COC(=O)C(C(=O)OC)C(C[N+](=O)[O-])c1ccc(O)c(OC)c1 (centres undefined)
-2.5	i	-6.1	0.662	-0.1	22.1	13.0	2.1	-1.0%	O=C(NC1CCCC1)C(c1ccncc1)N(C(=O)Cc1cccs1)c1ccccc1 (centres undefined)
-1.1	i	10.4	0.662	1.7	-2.7	-3.2	-0.3	-4.3%	CSc1nnc(C)c(=O)n1COC(=O)COc1ccc(Cl)cc1Cl
-13.7	i	-7.4	0.71	0.6	21.4	4.2	3.5	25.3%	Cc1ccc(NC(=O)CN(C)C(=O)c2cc3ccccc3o2)cc1
x	x	-1.5	0.715	0.5	x	x	x	-4.3%	CN(C)CCCOC(=O)Cc1ccc(Cl)cc1
x	x	-10.1	0.741	3.3	x	x	x	2.3%	CCOC(=O)C(Cc1ccccc1)NC(=O)CCc1c(C)nc2ncnn2c1C (centres undefined)
x	x	-3.0	0.74	-2.2	x	x	x	u	O=C(c1ccco1)N1CCN(C(c2ccccc2)c2nnnn2C2CCCC2)CC1 (centres undefined)
4.7	i	-9.1	0.721	-2.1	-0.3	12.1	-1.8	-0.4%	COC(=O)C1=C(C)N(CCCC(=O)O)C(=O)NC1c1cccs1 (centres undefined)
-1.9	i	x	x	x	1.1	1.4	-1.0	x	Cc1noc(C)c1S(=O)(=O)Nc1ccc2c(c1)C(=O)N([C@H](C)CO)C[C@@H](C)[C@@H](CN(C)C(=O)Nc1ccccc1)O2
x	x	1.7	0.653	2.5	x	x	x	30.0%	COc1ccccc1C(=O)N/C(=C/c1ccc(Br)cc1)C(=O)NCC(=O)O
8.6	x	15.8	0.703	-6.2	-0.3	-3.0	1.3	-6.9%	CN(C)c1ccc(C2Nc3ccccc3C(=O)N2NS(=O)(=O)c2ccccc2)cc1 (centres undefined)
x	x	0.3	0.765	3.1	x	x	x	-7.5%	Nc1nnnn1NCc1cccc(OCc2ccccc2)c1
1.0	x	-1.6	0.717	-1.6	-11.9	-7.8	-2.7	-4.1%	CN(CCc1ccccn1)C(=S)Nc1ccc(Cl)cc1Cl
-0.1	i	x	x	x	2.5	8.8	-0.4	x	COc1ccc(CN(C)C[C@H]2Oc3c(NS(=O)(=O)c4ccc(F)cc4)cccc3C(=O)N([C@@H](C)CO)C[C@H]2C)cc1
x	x	x	0.708	-0.1	x	x	x	-6.2%	COc1ccc(-n2c(C)n[nH]c2=O)cc1OC
-1.4	i	-1.2	0.639	-1.6	-20.8	-32.1	7.0	2.2%	COc1ccc(CC(=O)Nc2nc(-c3ccc(OC)c(OC)c3)cs2)cc1OC
0.4	i	8.2	0.685	-1.1	-7.9	-11.2	-13.8	-6.9%	O=C(O)c1cc(S(=O)(=O)N(Cc2ccccc2)c2cccc(C(F)(F)F)c2)ccc1Cl
-0.8	i	x	x	x	3.0	-2.3	-0.9	x	O=C(NC[C@@H]1N[C@@H](CO)[C@@H]1c1ccccc1)C1CC1
0.9	i	x	x	x	-3.5	-3.6	-1.9	x	COc1ccc(S(=O)(=O)N[C@@H]2CC[C@H](CC(=O)N3CCN(c4ccccc4)CC3)O[C@@H]2CO)cc1
3.9	i	x	x	x	-2.7	2.6	0.0	x	COc1ccc(S(=O)(=O)N(C)C[C@@H]2Oc3ccc(NC(=O)NC(C)C)cc3CC(=O)N([C@@H](C)CO)C[C@H]2C)cc1
3.6	i	x	x	x	3.3	2.3	0.6	x	C[C@H]1CN([C@@H](C)CO)C(=O)CCCn2cc(nn2)CO[C@H]1CN(C)Cc1ccc(C(=O)Nc2ccccc2N)cc1
-0.4	i	x	x	-2.2	2.4	11.7	-0.6	x	OC[C@@H]1CN(Cc2ccc(Cl)cc2)C[C@H](n2cnc3c(NCc4ccncc4)ncnc32)O1
x	x	-3.1	x	0.3	x	x	x	16.4%	C/C(=N\NC(=O)COc1ccc([N+](=O)[O-])cc1)C(C)(C)C
-4.8	i	x	x	x	-0.1	-10.8	1.2	x	Cc1ccc(S(=O)(=O)N(C)C[C@@H]2Oc3ccc(NS(=O)(=O)c4c(C)noc4C)cc3CC(=O)N([C@@H](C)CO)C[C@H]2C)cc1
x	x	-4.0	0.661	-5.5	x	x	x	-38.7%	COc1ccccc1CNC(=O)CSc1nc(N)c(C#N)c(-c2cccs2)c1C#N
10.4	i	0.5	0.68	4.9	-7.0	-12.2	1.2	x	Cc1c(C(=O)NC2CCN(Cc3ccccc3)C2)oc2c(Cl)cccc12 (centres undefined)
-1.2	i	x	x	x	0.3	6.6	-2.3	x	O=C(C[C@H]1CC[C@H]2[C@@H](COC[C@@H](O)CN2C(=O)c2ccccc2)O1)Nc1nccs1
x	x	6.2	0.737	5.7	x	x	x	-1.3%	N#C/C(=C\c1cn(Cc2ccc(F)cc2)c2ccccc12)C(=O)NCc1ccco1
-0.9	i	-28.8	0.666	-1.1	6.2	0.3	-3.2	4.2%	Cc1cccc(NC(=O)COC(=O)c2ccc([N+](=O)[O-])o2)c1C
2.8	i	-9.9	x	6.1	6.1	3.7	3.1	69.6%	CCCCC(O)(CCCC)C(=O)N/N=C(\C)c1ccc(Cl)cc1
12.5	i	3.8	0.682	0.6	-24.6*	4.6*	-0.3*	x	CC(=O)n1nc(-c2ccccc2)nc1NCc1ccc(N(C)C)cc1
-11.0	i	-5.2	0.684	-1.1	-4.6	-0.1	2.0	-12.1%	CC(=O)c1cc(C#N)c(SCc2ccccn2)nc1C
7.1	i	-6.0	0.742	-3.5	11.2	0.7	4.8	-2.6%	CCc1cccc2c(SCC(=O)NCC3CCCO3)nc(-c3ccc(F)cc3)nc12 (centres undefined)
x	x	97.5*	0.712	1.7	x	x	x	-0.8%	CC1Cc2nc(SCC(=O)N3CCc4ccccc43)n(C)c(=O)c2S1 (centres undefined)
12.7	i	x	0.597	0.4	-9.4	-6.8	-4.1	8.9%	Cc1cc(C)c(OCC(=O)N(Cc2ccc(N(C)C)cc2)C2CCS(=O)(=O)C2)c(C)c1 (centres undefined)
-3.4	i	x	x	0.5	-56.0	-71.1	-13.1	32.8%	O=C(Nc1nnc(-c2cccs2)o1)c1cc(-c2ccccc2)nc2ccccc12
0.6	i	-3.9	0.703	1.4	-0.8	-15.3	-0.8	x	O=C(c1cc(COc2ccc(F)cc2F)on1)N1CCN(C(=O)c2ccco2)CC1
-1.8	i	5.7	0.685	-1.9	6.0	9.0	0.5	-6.8%	CCCC(=O)NC(Nc1c(C)n(C)n(-c2ccccc2)c1=O)C(Cl)(Cl)Cl (centres undefined)
1.4	i	-0.6	0.67	-0.2	2.9	3.4	2.6	-3.7%	O=C(Cc1ccc(F)cc1)Oc1ccc(C(=S)N2CCCC2)cc1
-1.2&7.9	i	0.9	x	2.2	-7.3&-9.6	-22.2&-6.5	-9.2&-3.8	x	COc1ccc(NC(=O)Nc2ccc3c(c2)C(=O)N([C@@H](C)CO)C[C@@H](C)[C@@H](CN(C)S(=O)(=O)c2cccs2)O3)cc1
0.9	i	-23.2	0.686	3.2	5.7	9.2	-0.8	0.7%	CC(C(=O)O/N=C(\N)c1ccccn1)c1ccc([N+](=O)[O-])cc1 (centres undefined)
-1.0	i	x	x	x	-4.2	-9.7	-2.5	x	C[C@@H]1CN([C@@H](C)CO)C(=O)c2cc(NC(=O)NC3CCCCC3)ccc2O[C@@H]1CN(C)S(=O)(=O)c1ccc(Cl)cc1
-2.3	i	x	0.648	-3.1	14.8	7.8	0.8	-4.7%	Cc1nc2cc(C)c(C)cc2o1
-1.6	i	-0.3	0.744	-0.8	7.7	10.3	0.5	-2.2%	C=CCn1c(SCC(=O)NC(=O)NC)nnc1C1CCCCC1
-3.3	i	x	x	x	-4.3	-16.4	0.6	x	COc1ccc(NC(=O)N(C)C[C@@H]2Oc3c(NC(=O)c4ccc(-c5nccs5)cc4)cccc3C(=O)N([C@@H](C)CO)C[C@@H]2C)cc1
-0.6	i	-7.1	0.728	-0.6	3.1	29.9	10.7	16.5%	O=C(Nc1cnc2ccccc2c1)c1cccnc1
-1.0	i	x	x	4.0	12.5	11.4	-0.2	x	Nc1c(-c2ccc(F)cc2)nc2ncccn12
0.9	i	x	x	x	-1.6	4.2	10.3	x	O=C(C1CCC1)N1CC[C@@H]2[C@H]1c1cc(C#Cc3cccc(F)c3)ccc1N[C@@H]2CO
-0.1	i	-31.7	0.685	0.0	-8.7	-7.3	1.9	1.1%	CCOCCOC(=O)c1[nH]c2c(c1C)C(=O)CC(c1cc(OC)c(OC)c(OC)c1)C2 (centres undefined)
x	x	-1.3	0.674	1.7	x	x	x	-0.9%	Cc1ccc(NS(=O)(=O)c2ccc(CCC(=O)NC3CC3)cc2)cc1
x	x	-3.5	0.704	0.8	x	x	x	7.8%	CC(C)CC(NC(=O)C1CCC(C)CC1)C(=O)Nc1ccccn1 (centres undefined)
0.4	i	x	x	x	4.0	-1.1	-1.9	x	CC(C)C#Cc1cnc2c(c1)C(=O)N([C@H](C)CO)C[C@@H](C)[C@H](CN(C)C(=O)Nc1cccc(F)c1)O2
x	x	-0.6	0.685	3.1	x	x	x	10.6%	CCC(=O)Nc1cc(C(=O)OCC(=O)c2ccc(Cl)cc2Cl)ccc1C
-4.4	i	-3.9	0.683	-4.0	10.3	10.4	-3.8	-0.5%	CC(=O)NC1=NN(C(C)=O)C(C)(c2cccnc2)S1 (centres undefined)

# ALR inh, hit marks shown above
AF4-AF9 inh	FGF22 binding	ALR inh	Ecoli growth	HNF4A DNA FP	rRNA inh HTS	rRNA inh HTS OD600	rRNA inh HTS RFP	Vif A3G	Structure
x	x	97.5*	0.712	1.7	x	x	x	-0.8%	CC1Cc2nc(SCC(=O)N3CCc4ccccc43)n(C)c(=O)c2S1 (centres undefined)
